Screening data from PubChem BioAssay.
E coli growth – E. coli growth inhibition, primary screen, OD600 | Escherichia coli growth, 23 h; hits give low values | OD600 absorbance (test concentration not listed) | actives 0.21% (n = 330,000);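 active means OD600 absorbance below the run mean of sample wells minus 3.6 SD, in any replicate, cut at about 0.56 in these data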;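 further: stock transfer was 300 nL into about 60 µL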
* marks the source's active call; other numbers are inactive results; & = joins results of further samples.

mol | E coli growth
C=C1C2CCC3C(O)[C@@]2(CC(O)[C@@]2(O)C1CC(O)C2(C)C)C[C@@]3(C)O (stereo partly drawn) | 0.69
CNCC1Oc2c(NS(=O)(=O)c3ccc(F)cc3)cccc2C(=O)N(C(C)CO)CC1C (stereo not drawn) | 0.67
CC1CN(C(C)CO)C(=O)c2cc(NS(=O)(=O)c3ccccc3)ccc2OC1CN(C)C(=O)Nc1ccc(C(F)(F)F)cc1 (stereo not drawn) | 0.68
COc1ccc(C2Cc3cc(O)cc(O)c3C(=O)O2)cc1O (stereo not drawn) | 0.65
CN1CCN(C(=O)C2=CC(c3ccc(Br)cc3)CC(OCCCCO)O2)CC1 (stereo not drawn) | 0.66
O=C1C=C(c2cc3ccccc3s2)CC(c2ccc(Cl)cc2)C1 (stereo not drawn) | 0.72
CC(C)C(Nc1nc(-c2ccccc2)nc2c1oc1ccccc12)C(=O)O (stereo not drawn) | 0.68
C[C@@]12C(=O)Nc3cc(Cl)ccc3C(=O)N1C1c3cc(Br)ccc3OCC1C2c1ccccc1 (stereo partly drawn) | 0.73
CCCOc1ccc(C=NNC(=O)c2ccc(Cn3cc([N+](=O)[O-])cn3)o2)cc1 | 0.73
CCOC(=O)C1C2COc3cc(OC)ccc3C2N2C(=O)c3cc(F)ccc3NC(=O)[C@@]12C (stereo partly drawn) | 0.71
CCOC(=O)C(=Cc1ccc(C)cc1)NC(=O)c1ccccc1 | 0.69
COc1cc(C=CC(=O)O)ccc1S(=O)(=O)N1CCCc2ccccc21 | 0.7
CC1NC(=O)C(CCCN=C(N)N)NC(=O)c2cc([N+](=O)[O-])cc(I)c2NCCCC(C(N)=O)NC1=O (stereo not drawn) | 0.68
COC(=O)[C@@]12CCCN1C(c1ccc(-c3ccc(OC)cc3)c(OC)c1)C1C(=O)N(C)C(=O)C12 (stereo partly drawn) | 0.67&0.59
CC(NC(=O)c1nc[nH]c1C(=O)NCc1ccc(CNC(=O)OC(C)(C)C)cc1)C(=O)OC(C)(C)C (stereo not drawn) | 0.69
COC(=O)C1=C(C(=O)OC)C2N(C)c3ccccc3[C@@]23CC(C(=O)OC)N(C(=O)c2ccco2)C3=N1 (stereo partly drawn) | 0.73
NCCCCC(C(=O)N1CCNCC1)n1cc(CN)nn1 (stereo not drawn) | 0.65
CC1CN(C(C)CO)C(=O)c2cccc(NC(=O)Cc3ccccc3)c2OC1CN(C)Cc1ccccc1 (stereo not drawn) | 0.69
C#Cc1ccc(C2C=C(C(=O)N3CCN(Cc4ccccc4)CC3)OC(OCc3ccc(CO)cc3)C2)cc1 (stereo not drawn) | 0.7
CCOC(=O)CN1C(=O)NC(c2ccccc2)C(C(=O)OC)=C1C (stereo not drawn) | 0.69

mol | E coli growth
Cc1ccc(-c2nn(-c3ccccc3)cc2C=NNC(=O)c2ccc3c(c2)OCO3)cc1 | 0.73
CCSC(N)=NN=Cc1cc(C)ccc1O | 0.72
C#Cc1ccc(C2C=C(C(=O)NCc3nc4ccccc4[nH]3)OC(OCc3ccc(CO)cc3)C2)cc1 (stereo not drawn) | 0.68
NC(=O)CCC1NC(=O)C2CCCN2C(=O)c2cc([N+](=O)[O-])cc(F)c2NCCCC(C(N)=O)NC1=O (stereo not drawn) | 0.69
COc1ccc(C2CC=C(C(=O)O)C(c3ccc(Cl)cc3)N2S(=O)(=O)c2ccc(C)cc2)cc1OC (stereo not drawn) | 0.64
C=C1C(O)C(Cc2ccccc2)N(Cc2ccccc2Br)S1(=O)=O (stereo not drawn) | 0.7
COc1ccc(Cl)cc1NC(=O)COC(=O)C=Cc1c(C)nn(C2CCS(=O)(=O)C2)c1Cl (stereo not drawn) | 0.67
CC(C)(C)OC(=O)NCCCCC(C(=O)N1CCN(C(=O)OC(C)(C)C)CC1)n1cc(C(CO)NC(=O)OC(C)(C)C)nn1 (stereo not drawn) | 0.7
Cc1ccc(NC(N)=Nc2nc(CSc3ccccn3)cc(=O)[nH]2)c(C)c1 | 0.71
CCCOc1ccc(C2C(=C(O)c3c(C)[nH]c(C(=O)OC)c3C)C(=O)C(=O)N2CCN(C)C)cc1 (stereo not drawn) | 0.67
O=C(NCc1nc2ccccc2[nH]1)C1=CC(c2ccccc2)CC(OCCCCO)O1 (stereo not drawn) | 0.69&0.66
O=C1C=C(c2ccc(Oc3ccccc3)cc2)CC(c2ccc3c(c2)OCO3)C1 (stereo not drawn) | 0.73
NCCCCC(C(=O)NCCCCCCCCCCC(=O)N1CCNCC1)n1cc(CCO)nn1 (stereo not drawn) | 0.71
CC(C)CC(NC(=O)c1nc[nH]c1C(=O)NCc1ccc(CNC(=O)OC(C)(C)C)cc1)C(=O)OC(C)(C)C (stereo not drawn) | 0.72
CC1(C)OC2C(COS(=O)(=O)O)OC(n3cc(Br)c(=O)[nH]c3=O)C2O1 (stereo not drawn) | 0.65
O=C1CCC(C(=O)N2CSCC2C(=O)O)N1 (stereo not drawn) | 0.7
CCOc1ccc(C=CC2=CC(C)(C)NC(=S)N2)cc1 | 0.67
CCN1C(N(C)CCc2cccs2)=NC(c2ccccc2)C(C(=O)OC)=C1C (stereo not drawn) | 0.7
CCCOC(=O)C1C2C=C[C@]3(CN(CC4CCCO4)C(=O)C13)O2 (stereo partly drawn) | 0.68
Cc1ccc(C(=O)N2C3CN(C)C(=O)[C@@]2(C)C2C(=O)N(C)C(=O)C32)cc1 (stereo partly drawn) | 0.67

mol | E coli growth
CCCCN1CCC2C=CCC(C(=O)Nc3ccccc3)C2C1=O (stereo not drawn) | 0.69
COc1ccc(CC2CN3C(=NCC3Cc3ccccc3)N2CCNC(=O)c2ccc(C)c(Br)c2)cc1 (stereo not drawn) | 0.64
OCC1NCC(O)C1O (stereo not drawn) | 0.71
CC(CSc1ccccc1)CN1CCC(NC(=O)OCc2ccccc2)CCC1=O (stereo not drawn) | 0.69
CCN1C(=O)C2C(c3ccc(-c4ccccc4)cc3)N3CCCC[C@@]3(C(=O)OC)C2C1=O (stereo partly drawn) | 0.73&0.68
CCC(NC(=O)c1c(C)c(-c2ccccc2)nc2ccccc12)c1ccccc1 (stereo not drawn) | 0.71
O=C1C=C(c2cccc3c2Oc2ccccc2S3)CC(c2ccc(Cl)cc2)C1 (stereo not drawn) | 0.77
COc1ccc(C(N)=NOC(=O)c2cccc([N+](=O)[O-])c2)cc1 | 0.71
CCN=C1SC(=Cc2ccc(Sc3ccc(Cl)cc3)o2)C(=O)N1CC | 0.72
O=C(Nc1cccc(F)c1)C(=Cc1cccnc1)NC(=O)c1ccco1 | 0.74
COc1ccc(-c2ccc(OC)c(C3C4C=CCC(C)C4C(=O)N3Cc3ccccc3)c2)cc1OC (stereo not drawn) | 0.71
COC(=O)CN1C(=O)C2C(c3ccc(C)o3)N3C(=O)CN(CC4CC4)C(=O)[C@@]3(C)C2C1=O (stereo partly drawn) | 0.7
C=CCOC(=O)C1=CC(c2ccc(C(F)(F)F)cc2)CC(OCc2ccc(CO)cc2)O1 (stereo not drawn) | 0.63
CCC(C)C1CNCCN1CCC12CC3CC(CC(C3)C1)C2 (stereo not drawn) | 0.67
O=C(C1CC=CC2CCN(C3CCCCC3)C(=O)C21)N1CCN(c2ccccc2)CC1 (stereo not drawn) | 0.71
COC(=O)C1=C(C)N(Cc2ccccc2)C(=NCCN2CCOCC2)NC1CCc1ccccc1 (stereo not drawn) | 0.67
CCCCN1C(=O)C(=O)NCC1C(C)CC (stereo not drawn) | 0.68
COC(=O)C1=C(C(=O)OC)C2N(C)c3ccc(OC)cc3[C@@]23CC(C(=O)OC)N(C(=O)c2ccco2)C3=N1 (stereo partly drawn) | 0.7
CC(NC(=O)c1nc[nH]c1C(=O)NC(C)c1ccccc1)C(=O)OC(C)(C)C (stereo not drawn) | 0.72
COc1ccc(OC2C=CC(c3ccccc3)OC2COC(=O)CCC(C)=NOC(C)CN2CCCCc3nc(C)c(C)cc32)cc1 (stereo not drawn) | 0.73

mol | E coli growth
COC(=O)C1C(c2ccccc2)NC(=O)N(Cc2ccccc2)C1C (stereo not drawn) | 0.7&0.66
O=C1NC(Cc2ccccc2)C(=O)N2C1C[C@@]1(Br)c3ccccc3N(S(=O)(=O)c3ccc(F)cc3)C21 (stereo partly drawn) | 0.71
Cc1ccc(SCC(Cc2ccccc2)N2CCN(CC(C)C)CCC2=O)cc1 (stereo not drawn) | 0.67
O=C(NC(Cc1ccc(O)cc1)C(=O)O)c1ccc(C(F)(F)F)cc1 (stereo not drawn) | 0.71
CCOC1OC(C(=O)NCc2ccccc2)=CC(c2ccc(Br)cc2)C1CCCO (stereo not drawn) | 0.65&0.67
NCCCCC1CNC(=O)C(=O)N1CCc1cc(C(F)(F)F)cc(C(F)(F)F)c1 (stereo not drawn) | 0.66
COc1ccc(C2CC(=O)C=C(c3ccccc3)C2)cc1OC (stereo not drawn) | 0.68
CCc1nnc(NC(=O)C2CCCN2S(=O)(=O)c2ccc3c(c2)OCCO3)s1 (stereo not drawn) | 0.68
CCC(C)CCN1C(Nc2ccccc2)=NCC1CC(C)C (stereo not drawn) | 0.69
CC=CC=CC(=O)Nc1nccs1 | 0.67
COC(=O)[C@]1(C)NC(c2ccc(-c3ccc(Cl)c(Cl)c3)c(OC)c2)C2C(=O)N(C)C(=O)C21 (stereo partly drawn) | 0.72
CCCCNC(=O)OC1CC2CCN3C(=O)CCCC(C1CC)C23 (stereo not drawn) | 0.67&0.69
COC(=O)C=Cc1ccc2c(c1)S(=O)(=O)N(Cc1ccc(OC)cc1)C2CC(=O)OC (stereo not drawn) | 0.67
CC=CC=CC(=O)Nc1cccc(C2=NOC3(C2)CC(C(N)=O)N(C(=O)C(c2ccccc2)c2ccccc2)C3)c1 (stereo not drawn) | 0.69
CC(c1ccccc1)n1nnc(COCc2ccccc2)c1C#CCOCc1ccccc1 (stereo not drawn) | 0.7
C#CCNC(=O)C1=CC(c2ccc3c(c2)OCO3)C(CCCO)C(OCC)O1 (stereo not drawn) | 0.66&0.7
COc1ccc(C2C=CCN(S(=O)(=O)C=Cc3ccccc3)CC(=O)N2Cc2ccc(F)cc2)cc1 (stereo not drawn) | 0.73
CC(CN1CCC(Cc2ccccc2)CC1)C(O)c1ccc(O)cc1 (stereo not drawn) | 0.68
CC(C)=CCC[C@](C)(OC1OC(COC2OCC(O)C(O)C2O)C(O)C(O)C1O)C1CC[C@]2(C)C1C(O)CC1[C@@]3(C)CCC(OC4OC(CO)C(O)C(O)C4O)C(C)(C)C3CC[C@]12C (stereo partly drawn) | 0.62
CC1CN(C(C)CO)C(=O)c2cc(NC(=O)Cc3ccccc3)ccc2OC1CN(C)C(=O)Nc1ccccc1 (stereo not drawn) | 0.7

mol | E coli growth
CC(C=NN1C(=O)CSC1=S)=Cc1ccccc1 | 0.67
O=C(CC1CC=CCCCC(=O)OCC2CCCN2C1=O)NC(CO)Cc1ccccc1 (stereo not drawn) | 0.69&0.71
CCOC(=O)CN1C(=O)NC(c2ccccc2)C(C(=O)OC)C1C (stereo not drawn) | 0.7
COc1ccc(NC(=O)N(C)CC2Oc3c(NC(=O)c4ccncc4)cccc3C(=O)N(C(C)CO)CC2C)cc1 (stereo not drawn) | 0.7
CC(C)CC1COCCS(=O)(=O)N1Cc1cccc(Cl)c1 (stereo not drawn) | 0.64
CCN1C(=O)C2C(c3ccc(-c4ccc(F)cc4)cc3)N3CCC[C@@]3(C(=O)OC)C2C1=O (stereo partly drawn) | 0.71
O=C(O)c1cc(O)c2c(c1)C(C1c3cc(C(=O)O)cc(O)c3C(=O)c3c(OC4OC(CO)C(O)C(O)C4O)cccc31)c1cccc(OC3OC(CO)C(O)C(O)C3O)c1C2=O (stereo not drawn) | 0.67
N#CC(=Cc1ccc(Cl)cc1)c1nc2ccccc2o1 | 0.67
COc1ccc(NC(=O)C=Cc2c(Cl)nc3ccccn23)cc1 | 0.68
COc1ccc(-c2ccc(C)cc2)cc1C1C2C=CCC[C@@]2(C)C(=O)N1Cc1ccccc1 (stereo partly drawn) | 0.73
O=C(C=Cc1cccs1)N1CCC2(CC1)Oc1ccc(Cl)cc1C(=O)C21CC(c2cccnc2)=NO1 (stereo not drawn) | 0.7
C#CCOCCOCCOCCNc1nc(N2CCN(C(=O)CCCCCCCCCCNC(=O)Cn3cc(CC(C)O)nn3)CC2)nc(N2CCN(C(=O)CCCCCCCCCCNC(=O)C(C(C)O)n3cc(C)nn3)CC2)n1 (stereo not drawn) | 0.72
CN1C(=CC(=O)c2cccc(S(=O)(=O)N3CCCCC3)c2)C(C)(C)c2ccccc21 | 0.68
CCC=CC(=O)N1CC2(CC(c3cccc(NC(=O)CCCCC)c3)=NO2)CC1C(N)=O (stereo not drawn) | 0.65
CCCCNC(=O)C1CC1C(O)C(CO)NC(=O)C(Cc1ccccc1)NC(=O)OC(C)(C)C (stereo not drawn) | 0.71

An excerpt. The share of hits here may be higher or lower than overall.
